HPGD block: qHTS Assay for Inhibitors of HPGD (15-Hydroxyprostaglandin Dehydrogenase); purified HPGD, NADH fluorescence kinetic, PGE2 substrate; 15-hydroxyprostaglandin dehydrogenase [NAD(+)] (Homo sapiens), P15428; Potency, µM, for inactives: at the highest dose activity change, negative = inhibition, usual class: inhibitors; 150,000 tested, 4.3% active; active = well fitted inhibition curve with a large enough effect (not every such curve was filed as active); inconclusive = small, poorly fitted or top-dose-only effect, or another doubt; inactive = no such curve, though single readings can be large or run the other way;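 note: top concentration of the series not given in the record; plate controls included wells without enzyme; inactives centre near -10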
Target sequence (P15428 whole entry, looked up): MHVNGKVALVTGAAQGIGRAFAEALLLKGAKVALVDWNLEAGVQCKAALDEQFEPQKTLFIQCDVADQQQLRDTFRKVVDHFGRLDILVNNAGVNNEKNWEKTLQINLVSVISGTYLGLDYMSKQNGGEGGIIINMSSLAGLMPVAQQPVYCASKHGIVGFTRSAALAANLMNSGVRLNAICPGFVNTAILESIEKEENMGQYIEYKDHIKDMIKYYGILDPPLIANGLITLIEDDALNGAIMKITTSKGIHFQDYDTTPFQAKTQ
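20 nM HPGD preincubated 15 min at room temperature with compound in 50 mM Tris-HCl pH 8, 0.01% Tween 20. Started with 1 mM NAD+ and 30 uM prostaglandin E2; NADH fluorescence (360/450 nm) read 5 times over 30-s intervals, last minus first.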
* = called active by the depositor; ? = inconclusive. % is set by controls: 0 for no effect and ±100 for the full control effect; potency is the fitted concentration of half-maximal effect.

SMILES	HPGD block
CCOc1ccccc1C(=O)NC1CC2CCCC(C1)N2Cc1ccccc1 (stereo not given)	-6%
CCOC(=O)C(C)Oc1cccc2c(=O)n(CC(=O)N3CCN(C(=O)OCC)CC3)ccc12 (stereo not given)	-27%
Cc1nc(-c2cccc(NC(=O)c3cc4cc(Br)ccc4oc3=O)c2)cs1	-18%
Clc1ccc(N/N=C/c2cccnc2)cc1	-12%
CCOC(=O)c1c(NC(=O)CC2Nc3ccccc3NC2=O)sc(C)c1C (stereo not given)	-7%
O=C(O)C1C2C=CC(C2)C1C(=O)Nc1nccs1 (stereo not given)	-5%
Cc1cc(C)nc(SCCC(=O)N2CCOCC2)n1	6%
CCCCCOc1ccc(N2C(=O)CC(N(O)c3ccccc3)C2=O)cc1 (stereo not given)	-11%
CC(NC(=O)c1ccccc1)c1nc2ccccc2n1Cc1ccccc1F (stereo not given)	-11%
CC12CN3CC(C)(CN(C1)C3c1ccc(Br)cc1O)C2 (stereo not given)	-15%
O=P(COCCOCP(=O)(c1ccccc1)c1ccccc1)(c1ccccc1)c1ccccc1	2%
CNC(=O)c1c(NC(NC(=O)c2ccco2)C(=O)c2ccc(Cl)cc2)sc2c1CCCC2 (stereo not given)	-22%
COc1ccc(N(CC(=O)NCc2ccccc2OC)S(=O)(=O)c2c(C)nn(C)c2C)cc1	-12%
Cc1ccc(C(=O)N2CCN(c3ccc([N+](=O)[O-])c(NCc4cccnc4)c3)CC2)cc1	-9%
O=C(O)CSc1nc2ccccc2o1	-16%
O=C(Cn1nnc(-c2ccccc2Cl)n1)NCc1ccc2c(c1)OCO2	-11%
Cc1cc(=O)n2nc(N3CCC(C(=O)N4CCN(C)CC4)CC3)sc2n1	-13%
Cc1cc(C)n(-c2nc3nonc3nc2-n2nc(C)cc2C)n1	-7%
CCC(=O)Nc1ccc(-c2csc(C)n2)cc1	-19%
CONC(=O)C1CCN(C(=O)OCc2ccccc2)CC1	-14%
Cn1c(C(=O)OC(C(=O)NC2CCCC2)c2cccnc2)cc2sccc21 (stereo not given)	0%
COCCNC(=O)CC(c1ccccc1)c1ccccc1	14µM*
COc1ccc(S(=O)(=O)N2CCOC2CNC(=O)C(=O)NCCCn2ccnc2)cc1OC (stereo not given)	-11%
COc1ccc(N2CCN(c3ccc(NC(=O)C4CCCCC4)cc3C#N)CC2)cc1	?
COc1ccc(S(=O)(=O)Nc2ccccc2C(=O)NC(C)C)cc1OC	-24%
Cc1sc(=NC(=O)c2ccco2)n(C)c1-c1ccc(F)cc1	?
Cc1cc(C)cc(NC(=O)CCCSc2nc3ccccc3[nH]2)c1	-8%
CCS(=O)(=O)N1CCCC(C(=O)NCCc2ccccc2)C1 (stereo not given)	-12%
N[C@@]1(C(=O)O)CN[C@H](C(=O)O)C1	-14%
CCN(C(=O)c1cc2cc(OC)ccc2oc1=O)c1ccccc1	-20%
COc1ccc(NC(=O)N2CC3(CCN(C(=O)c4cc(C(F)(F)F)cc(C(F)(F)F)c4)CC3)C2)cc1	-15%
CC1=NN(C(=O)c2csc(C)c2C)C(O)(C(F)(F)F)C1 (stereo not given)	-19%
N#CCCn1c(=O)c(CCc2ccccc2)nc2cnc(Oc3ccccc3)nc21	-10%
O=C1C(Cl)=C(NCCCN2CCOCC2)C(=O)N1CCc1ccccc1	-21%
CCN(CC)c1ccc(/C=N/n2c(C)cc(C)cc2=O)cc1	?
Cc1ccc(NC(=O)c2cc3c(s2)CCC3)cc1S(=O)(=O)N1CCOCC1	-9%
O=[N+]([O-])c1cccc(-c2nnc(C34CC5CC(CC(C5)C3)C4)o2)c1	3%
CCCCOC(=O)N1CCOCCOCCN(C(=O)OCCCC)CCOCCOCC1	-6%
CO/N=C/c1ccc(Sc2ccccc2N)c([N+](=O)[O-])c1	-7%
CCN(CC)CCSC(=O)C(c1ccccc1)c1ccccc1	-10%
c1ccc(-c2cnnc(SCc3cn4cccnc4n3)n2)cc1	-15%
Oc1ccc(C2CNCc3sccc32)cc1O (stereo not given)	7.1µM*
Cc1ccc(S(=O)(=O)Nc2ccc(N3CCOCC3)cc2)cc1	-8%
CC(NC(=O)c1cccs1)C(c1cccs1)N1CCN(Cc2ccccc2)CC1 (stereo not given)	-12%
CCC1=C2CC[C@H]3C(=O)N(CC)C(=O)[C@H]3[C@H]2[C@@]2(C)C(=NCCc3c[nH]c4ccccc34)OC(=O)N2C1=O	-9%
COC(=O)C1=C(CN2CCc3ccccc32)NC(=O)NC1c1cc(C)ccc1C (stereo not given)	-8%
Cn1c(=O)c(-c2ccc(Cl)cc2)nc2cnc(Oc3ccccc3)nc21	-8%
COC(=O)C1=C(C)N(C)C(=O)NC1c1cc(Cl)cc(Cl)c1OC (stereo not given)	-7%
COc1ccccc1Nc1ncnc2c1cnn2-c1cccc(C)c1	?
O=C(N/C(=C/c1cccc([N+](=O)[O-])c1)C(=O)N1CCCCCC1)c1cccs1	-17%

Already shown: 5 of the compounds above.
SMILES	HPGD block
COC(=O)C1=C(CN2CCc3ccccc32)NC(=O)NC1c1cc(C)ccc1C (stereo not given)	-8%
Cn1c(=O)c(-c2ccc(Cl)cc2)nc2cnc(Oc3ccccc3)nc21	-8%
COC(=O)C1=C(C)N(C)C(=O)NC1c1cc(Cl)cc(Cl)c1OC (stereo not given)	-7%
COc1ccccc1Nc1ncnc2c1cnn2-c1cccc(C)c1	?
O=C(N/C(=C/c1cccc([N+](=O)[O-])c1)C(=O)N1CCCCCC1)c1cccs1	-17%

Carrying on:
SMILES	HPGD block
Cc1cc(C(=O)NP(=O)(N2CCOCC2)N2CCOCC2)c(C)n1-c1ccc(Br)cc1	-10%
Cc1ccc(NC(=O)CCSc2nnc3ccccn23)cc1	?
COc1ccc(N2CCN(C(=O)CCc3ccc(S(=O)(=O)NCC(C)C)cc3)CC2)cc1	-2%
CN(C)Cc1c(O)c(Cl)cc2c3c(c(=O)oc12)CCCC3	?
CC(C)N(Cc1nc(-c2ccccc2)no1)C(=O)COc1ccccc1	-20%
CC(C)c1ccc(-c2nc(N3CCOCC3)[nH]c(=O)c2C#N)cc1	?
CCCN1C(=O)/C(=C/c2ccc(C)s2)NC1=S	-16%
Cc1cccc(NC(=O)CN2NS(=O)(=O)c3ccccc3C2=O)c1	-13%
COC(=O)c1cc(CNC(=O)c2cccc(Cl)c2)ccc1OC	-14%
O=C(CCN1CCN(Cc2ccccc2)CC1)Nc1ccccc1Cl	-2%

Arranged by value in HPGD block (ascending): 4 from the list above.
SMILES,HPGD block
CC(C)N(Cc1nc(-c2ccccc2)no1)C(=O)COc1ccccc1,-20%
COC(=O)c1cc(CNC(=O)c2cccc(Cl)c2)ccc1OC,-14%
Cc1cc(C(=O)NP(=O)(N2CCOCC2)N2CCOCC2)c(C)n1-c1ccc(Br)cc1,-10%
COc1ccc(N2CCN(C(=O)CCc3ccc(S(=O)(=O)NCC(C)C)cc3)CC2)cc1,-2%

Molecules listed so far with a furan ring, fused or not (2):
SMILES	HPGD block
CNC(=O)c1c(NC(NC(=O)c2ccco2)C(=O)c2ccc(Cl)cc2)sc2c1CCCC2 (stereo not given)	-22%
Cc1sc(=NC(=O)c2ccco2)n(C)c1-c1ccc(F)cc1	?

The listing continues:
SMILES	HPGD block
O=[n+]1c2c(n([O-])c3cc(Cl)ccc31)CCCC2	-16%
Cc1ccc(NC(=O)COC(=O)c2ccccc2Nc2ccccc2)cc1	?
Cn1cccc1Cc1nnc(SCC(=O)Nc2ccc3c(c2)OCO3)n1-c1ccc(F)cc1	-2%
COc1ccc(N(CC(=O)N2CCCCC2)S(=O)(=O)c2ccccc2)c(OC)c1	-7%
O=C(Oc1ccccc1)N1CCC2(CC1)CCN(c1ccccc1)CC2	-6%
Clc1ccc(OCCN2CCCCC2)c(Cl)c1	1%
O=C(OCC#CCSc1nnc(-c2ccc(Br)cc2)o1)c1ccco1	-21%
CCS(=O)(=O)Nc1c(C(=O)O)[nH]c2ccccc12	?
CCOC(=O)c1ccccc1NC(=O)CC(C)CC(=O)O (stereo not given)	-19%
COC(=O)C1=C(N)Oc2cc(C)[nH]c(=O)c2C1c1ccncc1 (stereo not given)	-13%
Cc1ccc(CNCc2cccnc2)cc1	-5%
C=CCN(CC=C)CCOc1ccccc1F	-17%
CCCCC/C=C\C/C=C\CCCCCCCC(=O)NC(C)C(=O)O (stereo not given)	0%
CCc1ccc2nc(NC(=O)c3ccc4c(=O)[nH]c(CN5CCOCC5)nc4c3)sc2c1	?
COc1ccc(-c2nc(CCNC(=O)c3ccco3)cs2)cc1OC	?
Oc1ccc(C(=S)N2CCCCCC2)cc1	?
Cc1ccc(S(=O)(=O)Cn2nnnc2C(c2ccc(F)cc2)N2CCCCC2)cc1 (stereo not given)	-3%
O=c1c2ccccc2c(C=Nc2ccc(Cl)cn2)c(O)n1-c1cc(Cl)ccc1N1CCOCC1	24%
COC(=O)C1=C(C)Nc2ncnn2C1c1cccnc1 (stereo not given)	-10%
CCC(=O)Nc1cc(C(=O)NCC2CCCN2CC)c(OC)cc1N(C)C (stereo not given)	-6%
Cc1ccc(N2C(=O)c3ccccc3C2C(=O)c2cc(C)ccc2O)cc1 (stereo not given)	-20%
O=C(COc1ccc(Cl)cc1Cl)NCCSc1ccc(Cl)cc1	-15%
COc1ccc(NC(=O)OCC(C)C)cc1OC	-12%
Cc1ccc(C2(C)NC(=O)N(CC(=O)Nc3cc(C)on3)C2=O)cc1 (stereo not given)	-5%
CCN(CC)S(=O)(=O)c1ccc(C(=O)NNc2nc(-c3ccccc3)c3cc(Br)ccc3n2)cc1	-6%
O=C(Nc1ccccc1Cl)N1CCN(c2ccc3nnc(-c4ccc(F)cc4)n3n2)CC1	-19%
CCN(CC)S(=O)(=O)c1ccc(C(=O)N2CCN=C2SC)cc1	1%
C/C(=N\Nc1nnc2c3ccccc3n(C)c2n1)c1ccc(C)o1	-15%
CC(NC(=O)c1cccs1)c1ccc2c(c1)OCO2 (stereo not given)	-20%
CCCn1c(-c2ccc(F)cc2)nc2c(NCC(C)(C)CN(C)C)nc(C)nc21	?
COc1ccc(C2/C(=C(\O)c3ccc4c(c3)OCCO4)C(=O)C(=O)N2Cc2ccco2)c(OC)c1 (stereo not given)	-20%
CCCCN(C(=O)CSc1nnc(-c2ccc(OC)cc2)n1CC)c1c(N)n(Cc2ccccc2)c(=O)[nH]c1=O	-3%
Cc1csc(NC(=O)C2CCCN(S(=O)(=O)c3cnc[nH]3)C2)n1 (stereo not given)	-5%
CC(C)C(NC(=O)CNC(=O)OC(C)(C)C)C(=O)NCc1ccccc1 (stereo not given)	-5%
CCOc1ccc(Cn2ccnc2)cc1[N+](=O)[O-]	-3%
CCc1nnc(NC(=O)CSc2nnc(Cc3ccc(OC)cc3)o2)s1	-12%
CCNC(=S)N(Cc1ccco1)Cc1cc2cc3c(cc2[nH]c1=O)OCCO3	-27%
Cn1c(SCC(=O)N2CCOCC2)nnc1-c1cccc(NC(=O)c2ccccc2)c1	-17%
CC(C)(C)C(=O)Nc1cccc(-c2nc3ccccc3c(=O)o2)c1	-2%
CCn1c(SCC(=O)N/N=C/c2ccc(C)s2)nc2ccccc21	-21%
Cc1ccc(C(=O)N/C(=C/c2ccco2)C(=O)OCN2C(=O)c3ccccc3C2=O)cc1	-10%
CN1CCN(C(=O)/C(=C\c2ccccc2)c2ccccc2)CC1	18µM*
Clc1cc(Br)ccc1OCCCn1ccnc1	-14%
NNc1nc(NCc2ccccc2)nc(N2CCOCC2)n1	-8%
Cc1ccc(-c2nc3ccccc3s2)cc1NC(=S)NC(=O)c1ccccc1	-12%
CCc1c(C)sc(NC(=O)c2cc(C)on2)c1C#N	-16%
O=C(/C=C/N1CCOCC1)c1coc2ccccc12	?
CCOc1ccc(S(=O)(=O)Nc2cc(C)ccn2)c2ccccc12	-6%
Cc1ccccc1OCCOc1cccc(/C=N/NC(=O)Cc2nnc(N)s2)c1	-24%
CC(C)COC(=O)Cc1c(O)c2ccccc2[nH]c1=O	?

Continued:
SMILES	HPGD block
Cc1ccc(NC(=O)c2ccco2)cc1NC(=O)CSc1nnc(-c2cccs2)n1C	-10%
Cc1ccc(CNS(=O)(=O)c2ccc3c(c2)OCCO3)cc1	-3%
COc1ccc(C2CC(c3ccccc3)=NN2C(=O)COC(=O)c2cc(S(=O)(=O)N3CCOCC3)ccc2F)cc1 (stereo not given)	?
O=C(COc1ccccc1)Nn1c(-c2ccccc2)nc2ccccc2c1=O	0%
CC(C)(C)c1ccc(OCC(O)CN(CCO)CC(O)Cn2ccc3ccccc32)cc1 (stereo not given)	-8%
c1ccc(-c2cc3c(-n4cccc4)ncnc3o2)cc1	?
O=C(c1ccc2nc(N3CCCCC3)sc2c1)N1CCN(Cc2ccc3c(c2)OCO3)CC1	-16%
CCCC(=O)Nc1c(-c2cccs2)c(=O)c2ccccc2n1CC	-9%
COc1ccc(C(=O)NCc2cn3cccc(C)c3n2)cc1OC	-11%
CCC(C)NS(=O)(=O)c1ccc(OCC(=O)NCc2ccc3c(c2)OCO3)cc1 (stereo not given)	-2%
O=C(c1ccccc1)c1cc[n+]([O-])cc1	-16%
CCCOc1ccc(NC(=O)CC2C(=O)N(CC)C(=S)N2CCNC(C)=O)cc1 (stereo not given)	-3%
O=C(O)CC(Cn1cnnn1)c1ccccc1 (stereo not given)	-12%
CCN1CCCC1CNC(=O)c1ccc(Cc2nc3ccccc3[nH]2)cc1 (stereo not given)	-9%
COC(=O)c1sc2nc(N3CCCCC3)c3c(c2c1N)CCCC3	?
Cc1ccc(-n2c(SCC(=O)NC3CCCCC3)nc3c(c2=O)SCC3)cc1	-2%
O=C(O)[C@@H](Cc1c[nH]c2ccccc12)C(=O)NO	-12%
COc1ccc(C2=C(C=Nc3c(C)n(C)n(-c4ccccc4)c3=O)C(c3ccccc3C)c3ccccc3O2)cc1OC (stereo not given)	-19%
O=C(CNc1cccc2ccccc12)N/N=C/c1ccc(C(=O)O)cc1	-6%
COc1ccc(S(=O)(=O)NCCSCc2cccs2)cc1	-3%
OC1CCCN(Cc2ccc3ccc4cccc5ccc2c3c45)C1 (stereo not given)	-11%

Bioassay records (PubChem BioAssay)

Some of the compounds tested; the hit share may differ from the screen's.
